Screening data from PubChem BioAssay.
CatS inh = inhibitors of human cathepsin S. P25774. recombinant cathepsin S, AMC dipeptide fluorescence, pooled mixtures. inhibition, %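 (tested at 5 µM per compound within 10-compound mixtures)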. hit rate 0.06% among 62,000. AID 501; in the data active means inhibition above about 32%, passing the limit was not always enough;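 further: 0% = enzyme without compound and 100% = blank without enzyme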
Target sequence (P25774 115-331 limits assumed): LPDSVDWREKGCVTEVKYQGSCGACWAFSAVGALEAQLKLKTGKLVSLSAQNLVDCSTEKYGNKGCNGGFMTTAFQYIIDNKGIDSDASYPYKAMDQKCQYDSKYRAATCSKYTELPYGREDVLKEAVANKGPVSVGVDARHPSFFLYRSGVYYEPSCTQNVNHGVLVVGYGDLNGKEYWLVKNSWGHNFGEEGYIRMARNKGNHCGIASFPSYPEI
Cathepsin G inh = cathepsin G (human) inhibition | P08311 | purified enzyme, AMC-tetrapeptide fluorescence, pooled mixtures | inhibition, % at 5 µM (by protocol) | hit rate 0.2% among 62,000;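 active means inhibition above 20% in each of the two mixture wells holding the compound; inactive means inhibition of 20% or less in either well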;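 further: 0% = enzyme control without mixture and 100% = blank lacking enzyme; strong numbers were not always called active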
Target sequence (P08311 21-244 limits assumed): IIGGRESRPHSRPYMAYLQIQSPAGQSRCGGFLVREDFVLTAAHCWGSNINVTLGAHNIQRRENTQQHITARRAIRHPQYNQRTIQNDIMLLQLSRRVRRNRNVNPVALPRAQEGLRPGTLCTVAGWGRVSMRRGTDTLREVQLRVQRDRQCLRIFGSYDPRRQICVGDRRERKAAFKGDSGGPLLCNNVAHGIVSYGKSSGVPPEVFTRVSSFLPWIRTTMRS
CatL inh = inhibitors of human cathepsin L. purified cathepsin L, fluorogenic substrate, fluorescence. hit rate 0.17% among 58,000. inhibition, %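 (tested at 10 µM)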. P07711; in the data active means inhibition above about 45%;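 further: 0% = enzyme with no compound and 100% = no enzyme blank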
Numbers without * were called inactive; . = not tested or not shown. A portion of the library; count on the stated rates, not on these rows.

SMILES	CatS inh	Cathepsin G inh	CatL inh
Cc1ccc(OCc2nnc(SCC(=O)Nc3cc(C)on3)n2C)cc1	2	-3	0
CCCCOc1ccccc1-c1cc(C(=O)O)[nH]n1	7	-3	-4
CCOC(=O)Nc1cccc(Nc2ccccc2)c1	-6	4	15
Cc1nn(-c2ccccc2)c2[nH]c(=O)c(CNCCN3CCOCC3)cc12	3	-13	5
Cc1cc(C)n(C(=O)c2ccc(S(=O)(=O)N3CCCC3)cc2)n1	-6	-12	.
COc1cccc(C2=NOC(C(=O)Nc3ccc(OC)c(OC)c3)C2)c1 (stereo unspecified)	-17	-16	-5
COCCn1c(=NC(=O)CSCC(=O)NC2CCCCC2)sc2cc(OC)ccc21	-1	11	2
COc1ccc(NC(C)=O)cc1NC(C)C(=O)Nc1ccccc1F (stereo unspecified)	-2	11	1
COc1ccc(C2=NOC(C(=O)NCC(C)C)C2)cc1 (stereo unspecified)	-2	-11	-3
COc1ccc(NC(=O)C2CC(c3ccc(OC)c(OC)c3)=NO2)cc1OC (stereo unspecified)	-1	1	8
c1ccc2c(c1)CCCN2Cc1nnnn1C1CCCC1	1	-9	-1
Cc1ccc(-n2c(SCC(=O)NCc3ccco3)nnc2-c2cccnc2)c(C)c1	-8	-4	-4
Cc1cc(C)n(C(=O)c2ccc(NC(=O)C3CC3)cc2)n1	-6	-13	.
CCC(NS(=O)(=O)c1c(C)[nH]c(=O)[nH]c1=O)C12CC3CC(CC(C3)C1)C2 (stereo unspecified)	-5	7	1
CC(=O)c1ccc(NC(=O)CSc2nnc(-c3ccoc3C)n2Cc2ccccc2)cc1	18	-5	7
COc1ccc(C2=NOC(C(=O)N3CCCCCC3)C2)cc1OC (stereo unspecified)	8	9	5
COc1ccc(CCN(C)CCCC(C#N)(c2ccc(OC)c(OC)c2)C(C)C)cc1OC (stereo unspecified)	-2	-5	3
O=C(Nc1ccc2oc(=O)ccc2c1)c1ccco1	-2	4	-9
CCOc1ccc(NC(=O)c2cnsn2)cc1	0	-7	-1
N#Cc1cn(CC(=O)N2CCCC2)c2ccccc12	8	5	2

Look-ups from the entries so far.
`CCOc1ccc(NC(=O)c2cnsn2)cc1` | Cathepsin G inh: -7
`CCC(NS(=O)(=O)c1c(C)[nH]c(=O)[nH]c1=O)C12CC3CC(CC(C3)C1)C2` (stereo unspecified) | Cathepsin G inh: 7

Next section
SMILES	CatS inh	Cathepsin G inh	CatL inh
CC(C)CNC(=O)C1CCN(c2ccc(S(=O)(=O)N3CCOCC3)cc2Cl)CC1	6	13	14
COc1ccccc1NC(=O)N(Cc1ccccc1)C1=NCC(C)S1 (stereo unspecified)	-1	3	0
CCn1c(Cc2ccccc2)nnc1SCC(=O)Nc1ccccc1	23	-11	-6
CCOC(=O)c1c(-c2ccccc2)nnn1-c1nc(OCC)nc(N2CCCCC2)n1	2	8	18
CC(c1ccccc1)C1CC(=O)N(CC(=O)O)C1=O (stereo unspecified)	20	3	7
Cn1c(C(=O)NCCC2=CCCCC2)cc2c(=O)n3ccccc3nc21	-16	-5	-36
COc1ccc(C2NC(c3ccc(OC)c(OC)c3OC)C(C)C(=O)C2C)c(OC)c1OC (stereo unspecified)	7	11	5
CCN(CC)S(=O)(=O)c1cccc(C(=O)NCCCN2CCOCC2)c1	-7	-7	.
CC1=C(C(=O)Nc2ccccc2)C(c2ccncc2)n2nnnc2N1 (stereo unspecified)	-7	-2	-3
O=C(COc1ccc(Cl)cc1)Nc1ccc2oc(-c3ccncc3)nc2c1	12	-5	-2
COc1ccc(OCC(=O)Nc2cccc(OC)c2)cc1	5	3	15
COc1ccccc1NC(=O)CN1CCC(n2c(C)nc3cc(F)ccc32)CC1	-6	-2	0
COc1ccc(C2=NOC(C(=O)Nc3ccc(C)cc3)C2)cc1OC (stereo unspecified)	3	12	11
Cc1cc(O)c(NC(=O)c2ccc(Br)o2)cc1C	18	9	-1
CC1=C(C(=O)Nc2ccccc2)C(c2cccs2)n2nnnc2N1 (stereo unspecified)	8	8	6
COc1ccc(CNC(=O)C2CC(c3ccc(OC)cc3)=NO2)cc1 (stereo unspecified)	6	13	-3
C=CCNc1ncnc2c1cnn2-c1ccc(OC)cc1	0	2	-5

Some of the entries so far, with two lines to a compound:
Fields – CatS inh | Cathepsin G inh | CatL inh
COc1ccc(CCN(C)CCCC(C#N)(c2ccc(OC)c(OC)c2)C(C)C)cc1OC (stereo unspecified)
 : -2 | -5 | 3
O=C(Nc1ccc2oc(=O)ccc2c1)c1ccco1
 : -2 | 4 | -9
CCOc1ccc(NC(=O)c2cnsn2)cc1
 : 0 | -7 | -1
N#Cc1cn(CC(=O)N2CCCC2)c2ccccc12
 : 8 | 5 | 2
CC(C)CNC(=O)C1CCN(c2ccc(S(=O)(=O)N3CCOCC3)cc2Cl)CC1
 : 6 | 13 | 14
COc1ccccc1NC(=O)N(Cc1ccccc1)C1=NCC(C)S1 (stereo unspecified)
 : -1 | 3 | 0
CCn1c(Cc2ccccc2)nnc1SCC(=O)Nc1ccccc1
 : 23 | -11 | -6
CCOC(=O)c1c(-c2ccccc2)nnn1-c1nc(OCC)nc(N2CCCCC2)n1
 : 2 | 8 | 18
CC(c1ccccc1)C1CC(=O)N(CC(=O)O)C1=O (stereo unspecified)
 : 20 | 3 | 7
Cn1c(C(=O)NCCC2=CCCCC2)cc2c(=O)n3ccccc3nc21
 : -16 | -5 | -36
COc1ccc(C2NC(c3ccc(OC)c(OC)c3OC)C(C)C(=O)C2C)c(OC)c1OC (stereo unspecified)
 : 7 | 11 | 5
CCN(CC)S(=O)(=O)c1cccc(C(=O)NCCCN2CCOCC2)c1
 : -7 | -7 | .
CC1=C(C(=O)Nc2ccccc2)C(c2ccncc2)n2nnnc2N1 (stereo unspecified)
 : -7 | -2 | -3
O=C(COc1ccc(Cl)cc1)Nc1ccc2oc(-c3ccncc3)nc2c1
 : 12 | -5 | -2
COc1ccc(OCC(=O)Nc2cccc(OC)c2)cc1
 : 5 | 3 | 15
COc1ccccc1NC(=O)CN1CCC(n2c(C)nc3cc(F)ccc32)CC1
 : -6 | -2 | 0
COc1ccc(C2=NOC(C(=O)Nc3ccc(C)cc3)C2)cc1OC (stereo unspecified)
 : 3 | 12 | 11
Cc1cc(O)c(NC(=O)c2ccc(Br)o2)cc1C
 : 18 | 9 | -1
